# High-throughput results as filed in PubChem BioAssay.
# D2 potentiator: positive allosteric modulators of human D2 dopamine receptor | P14416 | DiscoveRx D2 beta-arrestin cells, luminescence, 90 min; 100% = 57 uM dopamine signal | potentiation, % (no concentration beside the values) | hit rate 0.23% among 360,000 | AID 624464; active = potentiation of 50% or more; inconclusive = 30% to 50%; inactive = 30% or less;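 note: compound concentration not given in the record; tested on top of an EC20 dose of dopamine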
# Target sequence (P14416 whole entry, looked up): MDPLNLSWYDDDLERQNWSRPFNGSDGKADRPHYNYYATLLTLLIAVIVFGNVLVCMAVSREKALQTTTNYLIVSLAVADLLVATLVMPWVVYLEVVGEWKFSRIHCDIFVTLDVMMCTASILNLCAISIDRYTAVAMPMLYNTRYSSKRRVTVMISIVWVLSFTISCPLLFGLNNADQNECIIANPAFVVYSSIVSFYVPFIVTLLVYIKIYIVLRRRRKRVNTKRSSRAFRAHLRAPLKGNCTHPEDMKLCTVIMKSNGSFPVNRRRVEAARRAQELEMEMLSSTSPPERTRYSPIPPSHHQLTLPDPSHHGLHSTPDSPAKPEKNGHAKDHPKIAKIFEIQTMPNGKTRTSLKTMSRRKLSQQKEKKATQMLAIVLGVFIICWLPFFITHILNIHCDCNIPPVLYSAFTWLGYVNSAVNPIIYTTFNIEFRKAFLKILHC
#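 D2 cells co-treated with compound plus 50 nM dopamine (EC20) for 90 min at 37 deg C to detect potentiation. Beta-arrestin recruitment was read as enzyme-fragment luminescence after 1 h at ambient temperature. Full response was set by 57 uM dopamine.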
# gsp antag: antagonists of gsp mutant (McCune-Albright syndrome). gsp-mutant cells, cAMP HTRF, 30 min; control for the full effect not named in the record. Potency, µM (series often up to 76.9 µM), for the others: at the top dose activity change, negative = inhibition, usual class: inhibitors. hit rate 0.4% among 340,000. AID 624288; active = falling curve of any shape with a large fitted effect; inconclusive = falling curve, mostly with a smaller effect; inactive = flat or rising curve; cell line not stated here;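 note: intracellular cAMP measured with PDE inhibitor Ro 20-1724 present during compound exposure; potency is the fitted concentration of half-maximal effect; % is set by controls: 0 for no effect and ±100 for the full control effect; nearly all actives have a fitted effect of over 65% in size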
#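 HTRF cAMP read-out (cAMP-d2 plus anti-cAMP antibody-K in lysis buffer, 30 min RT). Before lysis, cells are exposed to compounds with […] for 30 min at 37C in DPBS containing Ca/Mg, BSA and Tween 20.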
# Six1-Eya2 inh: Six1/Eya2 interaction inhibition. Q15475+O00167. AlphaScreen GST-Six1/His-Eya2 binding, biochemical; stronger effect = lower value; control for the full effect not named in the record. activity change, % (no concentration beside the values). hit rate 0.56% among 360,000. AID 651725; in the data active = activity change below about -65%; inconclusive = about -30% to -65%; inactive = above about -30%; note: % is set by controls: 0 for no effect and ±100 for the full control effect; compound concentration not given in the record
#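 GST-Six1 + His-Eya2 (5X stock: 250/500 nM); Tris pH 8.0, 300 mM NaCl, 0.05% BSA, 0.02% Tween 20; GSH donor/Ni acceptor beads; 1 h 37 °C dark; AlphaScreen readout.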
# D2 ag: agonists of human D2 dopamine receptor (beta-arrestin); activation, % (test concentration not listed); DiscoveRx PathHunter D2 beta-arrestin, luminescence, 90 min; 100% = 57 uM dopamine signal; hit rate 0.084% among 360,000; AID 624465; in the data active = activation above about 40%; inconclusive = about 15% to 40%; inactive = below about 15%; note: compound concentration not given in the record; the text of the record calls up to 30% inactive
#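 Agonist mode: compounds alone added to overnight-plated D2 PathHunter cells for 90 min at 37 C, with 57 uM final dopamine (EC100) defining full response. Beta-arrestin recruitment detected by chemiluminescent reagent, read after 1 h at ambient temperature.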
# CtBP-E1A blk: CtBP/E1A binding inhibition; hit rate 0.49% among 340,000; AlphaScreen GST-E1A/His-CtBP binding, 1536-well; stronger effect = lower value; control for the full effect not named in the record; activity change, % (concentration not given with the values); in the data active means activity change below about -65%; inconclusive means about -30% to -65%; inactive means above about -30%; note: % is set by controls: 0 for no effect and ±100 for the full control effect
#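 Protein mix (5X: 125 nM each GST-E1A, His-CtBP) was incubated with pinned compound 2 h at 37 deg C in dark, in 50 mM Tris pH 8.0 buffer with 300 mM NaCl. Glutathione donor and nickel acceptor beads followed; AlphaScreen signal read after 1 h.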
# gsp agonist: gsp mutant agonism. gsp mutant cells, cAMP HTRF, 30 min; control for the full effect not named in the record. Potency, µM (titrated, usually from 76.9 µM), inactives show top-dose activation (cAMP increase), usual class: activators. hit rate 0.13% among 340,000. AID 624287; active = well fitted activation curve with a large enough effect; inconclusive = small, poorly fitted or top-dose-only effect, or another doubt; inactive = no such curve, though single readings can be large or run the other way; cell line not stated here;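 note: phosphodiesterase inhibitor Ro 20-1724 added with compounds to block cAMP breakdown; potency is the fitted concentration of half-maximal effect; nearly all actives have a fitted effect of over 60% in size; about a fifth of the inactives were tested at one dose only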
#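 Cells in DMEM/10% FBS with G418 were pretreated with compounds in DMSO plus […] (300 uM stock) for 30 min at 37C. cAMP was measured by HTRF (cAMP-d2 plus anti-cAMP antibody-K) after 30 min at room temperature.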
# * marks the source's active call; other numbers are inactive results; ? = inconclusive; . = no result given; [ ] = dose if it differs, or a comment.
# Sample of the layout:
SMILES,D2 potentiator,gsp antag,Six1-Eya2 inh,D2 ag,CtBP-E1A blk,gsp agonist
Cc1ccc(S(=O)(=O)N2CCN(Cc3nc4sc5c(c4c(=O)[nH]3)CCCC5)CC2)cc1,-3,-6%,3,-4.9,-4,18%[15.4 µM]
Cc1ccc(NC(=O)COc2coc(CN3CCc4ccccc4C3)cc2=O)cc1Cl,0,-4%,4,14,7,4%
COC(=O)C(C(=O)N1CCN(C)CC1)C1CCCCCC1 (stereo not given),-16,2%[15.4 µM],-1,-2.7,-1,3%
Cc1nn(C(=O)Cn2ccc([N+](=O)[O-])n2)c(C)c1Br,-4,6%,-2,2.1,-4,12%

# All compounds of this part (from the top)
SMILES,D2 potentiator,gsp antag,Six1-Eya2 inh,D2 ag,CtBP-E1A blk,gsp agonist
Cc1ccc(S(=O)(=O)N2CCN(Cc3nc4sc5c(c4c(=O)[nH]3)CCCC5)CC2)cc1,-3,-6%,3,-4.9,-4,18%[15.4 µM]
Cc1ccc(NC(=O)COc2coc(CN3CCc4ccccc4C3)cc2=O)cc1Cl,0,-4%,4,14,7,4%
COC(=O)C(C(=O)N1CCN(C)CC1)C1CCCCCC1 (stereo not given),-16,2%[15.4 µM],-1,-2.7,-1,3%
Cc1nn(C(=O)Cn2ccc([N+](=O)[O-])n2)c(C)c1Br,-4,6%,-2,2.1,-4,12%
C=CCn1c(SCC(=O)c2ccc(O)c(O)c2)nnc1-c1cccc(C)c1,6,?,-9,4.1,-2,.
CCn1c(SC)nnc1C1CCCN(CC(=O)Nc2ccccc2N2CCOCC2)C1 (stereo not given),-2,-3%,4,-21,20,-7%[15.4 µM]
CCOc1ccccc1NC(=O)Nc1ccc(Br)cc1C,0,1%,-1,-3.1,-6,5%
CC(C)(C)C(=O)OC/C(N)=N/OC(=O)c1ccccc1,11,6%,1,?,-12,22%
CCCn1c(C2CCCN2c2nc(-c3ccc(OC)cc3)cs2)nc2ccccc21 (stereo not given),-15,-1%,-20,-6.8,.,?
Cc1ccc(OCC(=O)NNC(=O)C2CC(=O)N(c3ccc4c(c3)OCCO4)C2)cc1 (stereo not given),-4,-2%,-7,-2.7,-5,7%[15.4 µM]
O=C(Oc1ccc2c(c1)OCO2)c1cc2c(s1)CCC2,-8,19%,-2,2.5,15,-20%
O=C(Nc1cccc(C(F)(F)F)c1)NC1CCN(S(=O)(=O)c2ccc(F)cc2)CC1,-8,-9%,-1,-0.1,4,-3%
Cc1ccc(S(=O)(=O)N2CCN(C(=O)COC(=O)c3c(C)cc(C)cc3C)CC2)c(C)c1,4,-13%,-5,4.1,1,-5%[15.4 µM]
CCOC(=O)N1CCN(C(=O)CN(c2ccccc2OC)S(=O)(=O)c2ccc(C)cc2)CC1,-2,-17%,1,-2.4,1,4%
O=C(CCC1CCCN(C(=O)c2ccncc2)C1)NCc1ccc(F)c(F)c1 (stereo not given),-2,-12%,11,1.4,4,-2%[15.4 µM]
Cc1nnc2c(N3CCN(CCO)CC3)nc3ccccc3n12,-8,12%,-1,-1.0,.,?
Cc1onc(-c2ccccc2)c1C(=O)NNC(=O)c1ccccc1Br,-10,4%,-4,-5.7,.,-21%
COc1ccc(CN2CCC(=O)N([C@H](CO)CC(C)C)CC2)cc1,-5,14%,6,-1.7,14,.
CCCc1cc(-c2n[nH]c(=S)n2CC)c2ccccc2n1,-13,-22%,4,0.2,0,?
Cc1nc2nc(Cc3ccccc3)[nH]n2c(=O)c1Cc1ccccc1,-7,-1%,-3,-4.1,-3,-3%
CNc1cc(C)nc(-n2nc(C)cc2C)n1,-10,-1%[15.4 µM],1,-3.4,0,14%
Cn1c(CCNC(=O)c2ccccc2F)nnc1SCC(=O)Nc1nncs1,-10,-5%,-12,-2.5,0,6%[15.4 µM]
CCc1ccc(OCC(=O)NC(NC(=S)Nc2ccccc2C)C(Cl)(Cl)Cl)cc1 (stereo not given),-8,-10%,2,0.4,9,10%[15.4 µM]
CCN(CC)S(=O)(=O)c1ccc(C)c(NC(=O)COC(=O)c2ccc(C)c(S(=O)(=O)N3CCOCC3)c2)c1,-27,0%,-6,-1.0,-1,-21%
CC(C)C(NC(=O)C1CCCCC1)C(=O)Nc1ccccn1 (stereo not given),1,12%,-1,-4.5,-5,-35%[inhibitor]
COc1ccc(CN2C(=NC(=O)C3CC3)SC3CS(=O)(=O)CC32)cc1 (stereo not given),-6,11%,5,-4.5,1,-29%
Cc1ccc(S(=O)(=O)NCC(=O)OC(C)C(=O)NCc2ccc3c(c2)OCO3)cc1 (stereo not given),4,-13%,2,-1.2,-14,?
CC(Oc1cc2oc(=O)c3c(c2cc1Cl)CCC3)C(=O)NCCCN1CCCC1=O (stereo not given),-6,-4%,-3,-7.7,0,9%
Cc1cc(C)nc(NS(=O)(=O)c2ccc(NS(=O)(=O)c3ccccc3)cc2)n1,-11,-24%,1,-0.7,3,-24%
Cc1cccc(NC(=O)c2cc(N3CCOCC3)nc3ccccc23)c1,-9,4%,15,-4.4,9,18%
CN(C(=O)c1cccc(NC(=O)C2CCCN(C(=O)OC(C)(C)C)C2)c1)C1CCC1 (stereo not given),-5,-11%,-9,-1.3,-6,.
COc1ccccc1C(=O)NC(=S)Nc1ccccc1N1CCCCC1,-12,-6%,-16,-5.6,-5,-3%
CCOC(=O)c1sc2nc3n(c(=O)c2c1C)CCC(C)CC3 (stereo not given),13,-7%,4,-1.3,7,-4%
CCOc1ccc(S(=O)(=O)N2CCCCC2)cc1NC(=O)c1c(CC)noc1C,-13,4%,0,0.7,-5,-48%[inhibitor]
CCCCN(C(=O)NC(=O)Nc1ccccc1OCC)S(C)(=O)=O,-1,12%,1,3.3,-4,5%
O=C(CSc1nc2[nH]c(=O)cc(O)c2s1)Nc1nncs1,1,3%,8,-1.6,3,8%[15.4 µM]
COCCNC(=O)c1ccc2c(=O)n(CCOC)c(=O)[nH]c2c1,-15,5%,4,-1.6,0,-28%
CC(C)c1ccc(C(=O)NN2C(=O)C3CCCCC3C2=O)cc1 (stereo not given),-20,12%,14,-3.3,17,16%[15.4 µM]
CCOC(=O)CNC(=O)CCCCCC(=O)NCC(=O)OCC,-2,6%[15.4 µM],0,-0.4,6,-62%[inhibitor]
CSc1ccc(-c2cccc([N+](=O)[O-])c2)nn1,7,-5%,-4,-0.8,-3,10%[15.4 µM]
CCN(C(=O)c1cc2cccc(OC)c2oc1=O)c1ccccc1,2,5%,1,-2.2,3,-1%
O=C1CCC(C(=O)N2CCN(c3ccccc3Cl)CC2)CN1CC1CCCCC1 (stereo not given),-24,-11%,5,0.2,0,-52%[inhibitor]
N#Cc1cn(Cc2cccc(Cl)c2)c2ccccc12,-7,2%,36,-2.3,17,?
Fc1ccccc1CSc1nncn1NCc1cccs1,1,-6%,-1,1.1,-7,15%
Cc1nn(C)c(=S)n1-c1ccc(Cl)cc1,-5,1%,9,-4.1,2,-2%
Nc1cc(C(F)(F)F)ccc1N1CCOCC1,-4,-5%,-4,-6.3,-3,-12%[15.4 µM]
CCN1CCCC1CNC(=O)Cn1ncc2c(=O)oc3ccc(C)cc3c21 (stereo not given),-11,12%,4,-3.8,5,-75%[inhibitor]
COc1ccc(N2CCN(CC(=O)c3ccc(O)cc3O)CC2)cc1,-9,11%,-16,-5.9,-10,-5%[15.4 µM]
CC(=O)Nc1cc(-c2cccc(C(=O)N(C)C)c2)cn2c(-c3ccc(F)c(Cl)c3)cnc12,-12,.,-6,-4.2,-2,.
C=CCc1cccc2cc(C(=O)NC)c(=O)oc12,8,-6%,-5,-3.4,4,22%

# (further entries)
SMILES,D2 potentiator,gsp antag,Six1-Eya2 inh,D2 ag,CtBP-E1A blk,gsp agonist
COc1ccc(OC)c(C(=O)Cn2nnc(-c3ccc(N4CCOCC4)cc3)n2)c1,-3,0%,8,-0.9,10,4%
C=CCn1c(SCC(=O)N2N=C(c3ccco3)CC2c2ccco2)nnc1-c1ccncc1 (stereo not given),3,-5%,1,-2.8,1,-5%
O=C1CCCC2=C1C(c1ccc(Cl)cc1)N1C(=O)CCSC1=N2 (stereo not given),-5,3%,3,-0.5,0,-1%
O=C(Nc1ccc(N2CCOCC2)c(F)c1)c1ccncc1,-29,4%,-2,-2.5,1,27%
CN(Cc1ccc(C(C)(C)C)cc1)C(=O)C1CSC2(C)CCC(=O)N12 (stereo not given),0,-5%,-2,-4.5,.,?
CCC1(CC)C(=O)N(C)C(=O)NC1=Nc1ccc(OC)cc1,2,6%,2,-1.6,11,-7%
Cc1cccc(/C(N)=N/OC(=O)c2ccc(Br)o2)c1,65*,1%,4,?,14,?
Cc1ccc(OCC(=O)N/N=C\c2ccc(C)o2)c(C)c1,-1,3%,0,-1.8,-2,-13%[15.4 µM]
CCc1nc2ccc(C(=O)NCCNC(C)=O)cn2c1N(CC)Cc1cccc(Br)c1,2,.,2,2.2,0,.
COc1ccc(C2SCC(=O)N2c2ccc(F)cc2)cc1 (stereo not given),-2,3%,-2,8.5,1,8%
COc1ccc(NC(=O)Nc2ncn(Cc3cccc(C(F)(F)F)c3)n2)cc1OC,-8,12%,-8,-0.9,-3,-25%
COc1ccc(C2(CNC(=O)c3cccc([N+](=O)[O-])c3)CCCCC2)cc1OC,-4,-5%,-18,-1.0,1,?
Cc1ccc(NC(=O)c2c(C)nn(-c3ccccc3)c2Cl)c(C)c1,-14,13%[15.4 µM],0,-2.3,4,21%
Cc1ccc2oc(=O)c3cnn(CC(=O)NC4CCCCC4C)c3c2c1 (stereo not given),-7,9%,-9,?,-26,-87%[inhibitor]
CN(C)c1ccc(NC(N)=S)cc1,11,-20%,-6,4.2,-3,22%[15.4 µM]
COC(=O)[C@@H]1C[C@@H]2CC[C@@H](O)C[C@@H]2N1Cc1ccc(Cl)cc1,0,0%,-5,-0.3,1,.
Fc1ccc(OCCOCCOc2cccc3[nH]ccc23)cc1,-6,8%,6,-2.4,-4,22%
CC1Sc2ccc(S(=O)(=O)CCC(=O)NC3CCCCC3C)cc2NC1=O (stereo not given),-7,4%,4,-2.1,9,-11%
O=C(NN=Cc1ccc(N2CCOCC2)cc1)c1cc2ccccc2cc1O,4,-9%,-2,2.3,1,-1%
O=C(CSc1nc2ccc([N+](=O)[O-])cc2[nH]1)NC1CCCCC1,-6,28µM*,-6,-4.1,-3,30%
CCn1cc(/C=C(\NC(=O)c2cc(OC)c(OC)c(OC)c2)C(=O)N2CCN(C)CC2)c2ccccc21,-20,0%,-4,-1.6,0,10%
CNC(=O)/C(C#N)=C/c1c(N2CC(C)OC(C)C2)nc2ccccn2c1=O (stereo not given),-6,1%,3,-5.4,2,?
CCC(=NCc1ccccc1)C1=C(O)C(C(=O)OC)C(C)(C)CC1=O (stereo not given),-23,-1%,0,-2.1,0,1%
CC(Oc1cccc(Cl)c1)C(=O)Nc1ccc(S(=O)(=O)Nc2ncccn2)cc1 (stereo not given),9,-2%,-6,0.8,0,-1%
